Vaccinia Venus – inhibitors of vaccinia virus (Venus reporter) | Vaccinia virus Venus reporter expression, fluorescence | Potency, µM (top dose mostly 36.5 µM), inactives show top-dose activity change, negative = inhibition, usual class: inhibitors | 330,000 compounds, 0.46% hits | AID 720580; active means well fitted inhibition curve with a large enough effect; inconclusive means small, poorly fitted or top-dose-only effect; inactive means no such curve, though single readings can be large or run the other way; tested in A549 cells; also: nearly all actives have a fitted effect of over 30% in size; inactives centre near -10
VACV mCherry inh – vaccinia inhibition (mCherry reporter); Vaccinia virus mCherry reporter infection, fluorescence; about a quarter of the inactives have no number; Potency, µM (top dose mostly 36.5 µM), inactives show at the highest dose activity change, negative = inhibition, usual class: inhibitors; 310,000 compounds, 0.63% hits; AID 720579; active = well fitted inhibition curve with a large enough effect; inconclusive = small, poorly fitted or top-dose-only effect; inactive = no such curve, though single readings can be large or run the other way; tested in A549 cells; also: nearly all actives have a fitted effect of over 35% in size; inactives centre near -10
* hit, by the source's call; i = inactive; ? = inconclusive; nt = not tested or not shown; [ ] = dose if it differs, or a comment. % is scaled to controls: 0 for no effect and ±100 for the full control effect; potency is read from the fitted curve at half-maximal effect.

SMILES	Vaccinia Venus	VACV mCherry inh
COc1ccc(N2CCN(C(=O)CC(C)S(=O)(=O)c3ccc4c(c3)NC(=O)CO4)CC2)cc1 (configuration not stated)	-10%	?
C=CCn1c(SCCCc2ccccc2)nc2c1c(=O)[nH]c(=O)n2C	-6%	-22%
CCN(Cc1ccccc1)C(=O)Cn1c(=O)n(-c2ccc(Cl)cc2)c(=O)c2c(C)c(C(=O)N(C)C)sc21	-3%	-2%
CCC(C)N(C(=O)c1csnn1)C(C(=O)NC1CCCC1)c1ccc(F)cc1 (configuration not stated)	-6%	-13%
O=C(Nc1ccc(OCc2cc(=O)n3ccccc3n2)cc1)c1ccccc1Cl	-3%	-1%
CC[C@H](C)[C@@H]1NC(=O)c2cc([N+](=O)[O-])cc(I)c2SC[C@@H](C(N)=O)NC(=O)[C@H](CCCCN)NC1=O	-4%	-9%
CCOc1ccc(-c2nnc(SCC(=O)Nc3cc(F)ccc3F)o2)cc1	-3%	-6%
CCn1c(C)cc(=S)c2ccccc21	-5%	-13%
Cc1ccc(NC(=S)NC2CCCCC2)cc1S(=O)(=O)N(C)C	-8%	i
COc1cccc(-c2c(C(=O)N/N=C/c3ccc(C)o3)nnn2-c2nonc2N)c1	13%[7.34 µM]	-9%[7.34 µM]
CCOc1ccc(-c2cn3c(n2)sc2cc(C(=O)NCCc4ccc(OC)c(OC)c4)ccc23)cc1	-9%	-17%
O=S(=O)(c1cccs1)N1CCN(S(=O)(=O)c2cccs2)CC1	3%	-3%
COc1ccc(C(=O)CSc2nnc(CNC(=O)c3ccc(S(=O)(=O)N(C)C)cc3)o2)cc1	-13%	-1%
NCc1cc2c3c(c1)CCCN3CCC2	-12%	?
CCN(CC)S(=O)(=O)c1ccc(N2CCOCC2)c(NC(=O)C2CC2)c1	-4%	-8%
O=C(Nc1ccc(F)cc1F)c1c(C(F)(F)F)ccnc1Oc1ccc(Cl)cc1	0%[7.34 µM]	-19%[7.34 µM]
COc1ccc(CN2CCNC(=O)C2CC(=O)NCCc2cnccn2)cc1C (configuration not stated)	-15%	-4%
COc1ccc(-c2ccc(C(=O)NCCc3ccccc3)c3occc23)c(C)c1	-13%	12%
O=C(CSc1nnc(SCC(=O)c2ccco2)s1)c1ccco1	2%	-4%
Cc1cccc(CNC(=O)c2cnn(-c3nccc(-c4cc(C)sc4C)n3)c2C)n1	-1%	-4%
Cc1cccc(C)c1OP(N)(=O)OCC(F)(F)F (configuration not stated)	-5%	i
O=[N+]([O-])c1ccc(-c2ccn[nH]2)o1	-2%	-24%
Clc1ccc(C(Cn2ccnc2)OCc2csc3c(Cl)cccc23)c(Cl)c1 (configuration not stated)	-26%	-13%
CC1CC(C)CN(C(=O)COC(=O)Cc2ccc(Cl)cc2)C1 (configuration not stated)	-12%	-4%
COc1ccc(-c2nc(SCC(=O)Nc3ccc4c(c3)OCCO4)c(-c3ccc(F)cc3)[nH]2)cc1OC	-27%	-16%
Cc1nn2c(=O)cc(COC(=O)COc3ccc(F)cc3)nc2s1	-3%	7%
C=CCC(NC(=O)c1ccc(C#N)cc1)C(=O)NCCC (configuration not stated)	-10%	-1%
CCOC(=O)c1c(O)c2c(n(Cc3ccco3)c1=O)CCCC2	-5%	nt
O=C1NCCN1c1ccc(CN2CCN(C3CCCCC3)C(CCO)C2)cc1 (configuration not stated)	-8%	-9%
COc1cc(C(CC(=O)N2CCOCC2)c2c(OC)cc(OC)c3ccc(=O)oc23)cc(OC)c1OC (configuration not stated)	-9%	3%
O=S(=O)(c1ccccc1)N1CCC(O)(CSc2ccccc2)CC1	-22%	-3%
CCN(CCNC(=O)c1ccc(CSc2nc3ccncc3[nH]2)cc1)c1ccccc1	-11%	-12%
CCOC(=O)C1(CCc2ccccc2)CCN(Cc2c(O)cccc2OC)CC1	-22%	-29%
COc1ccc(C(=O)NC(=S)Nc2cccc(S(=O)(=O)N3CCOCC3)c2)cc1	?	-29%
Cn1c(=O)[nH]c(=O)c2c1nc1n2CCCN1CCc1ccccc1	-21%	nt
CC1COc2ccccc2N1C(=O)c1ccccc1Cl (configuration not stated)	-11%	-3%
Oc1ccc(-c2nc3ccccc3nc2-c2ccccc2)cc1	-23%	-8%
O=C(CCN1C(=O)c2ccc([N+](=O)[O-])cc2C1=O)Nc1ccc(O)cc1C(=O)O	2%	10%
O=C(NCCC(=O)N1CCN(C(=O)c2ccco2)CC1)c1ccc(Br)cc1	-14%	-13%
O=C(O)c1ccccc1N=Nc1c(O)[nH]c2ccc([N+](=O)[O-])cc12	5%	i
O=C(CSC1=Nc2ccccc2C2=NC(Cc3ccccc3)C(=O)N12)Nc1ccccc1 (configuration not stated)	-17%	0%
CCN(C(=O)Cn1c(SCC(=O)NCc2ccccc2)nc2ccccc21)c1cccc(C)c1	-11%	i
C/C=C/COC(=O)c1[nH]c2c(c1C)C(=O)CC(c1ccco1)C2 (configuration not stated)	?	?
Cc1ccc2cc(/C=N/NC(=O)[C@H](C)NC(=O)OC(C)(C)C)c(Cl)nc2c1	-22%	-5%
CC(=O)C[C@@H](O)CC(=O)[C@@H]1OC(=O)CCCCCc2ccccc21	-4%	i
COc1ccc(/C=C/C(=O)Nc2cccnc2)cc1OC	-7%	-5%
CNS(=O)(=O)c1cn(CC(=O)Nc2ccc(C(C)=O)cc2)cc1S(=O)(=O)NC	-2%	0%
CC(=O)Nc1ccc(NC(=O)CSc2nnc(NC(=O)c3ccc(Br)o3)s2)cc1	-26%	-17%
CC(C)(C)CC(=O)Nc1nnc(SCC(=O)NC2CCCC2)s1	7%	36%[activator]
O=CN1CCN(C(=O)c2cc3cc(Cl)ccc3[nH]2)CC1	-23%	-30%

Next records
SMILES	Vaccinia Venus	VACV mCherry inh
CN1CCN(C(=O)c2ccc(-c3cccs3)s2)CC1	-14%	i
CCCc1nc2cccnc2n1C1CCN(C(=O)CC2NC(=O)c3ccccc32)CC1 (configuration not stated)	-10%	-13%
O=C(NC1CCCC1)C1CCN(C(=O)Nc2cccc(Cl)c2)CC1	-1%	0%
Cc1nnc(SCC(=O)Nc2ccc3c(c2)OCO3)s1	-9%	-8%
Cc1c(C(=O)NCc2ccco2)cnn1-c1ncc2c(n1)-c1ccccc1CC2	-28%	-15%
CCc1ccc(C(=O)COC(=O)CNC(=O)c2ccco2)cc1	-10%	i
COc1cccc(CNC(=O)C2CCN(S(=O)(=O)c3cccs3)CC2)c1	-22%	-25%
COc1cccc(CNC(=O)Cc2csc3ccccc23)c1OC	-10%	-10%
CCOc1ccc(OCC)c(S(=O)(=O)NCc2ccccn2)c1	-16%	i
COc1ccc(CNC(=O)c2cnc3sc(N4CCCC4)nn3c2=O)c(OC)c1	-6%	-13%
COc1ccc(OCC(O)CN2CCN(c3ncccn3)CC2)cc1 (configuration not stated)	-4%	-18%
C/C(=N\NC(=S)NCc1ccccc1)c1ccc(C)o1	-25%	?
O=C(NCc1noc2ccccc12)N1CCN(c2ccccc2F)CC1	-8%	0%
CCOC(=O)c1ccc(NC2=CC(=O)C(=O)c3ccccc32)cc1	-4%	nt
COc1ccc(CNC(=O)C2CSC(=O)C2)cc1 (configuration not stated)	-6%	nt
CNC(=O)C[C@H]1C(=O)N(CCc2ccccc2)C[C@@H]1C	-7%	5%
Cc1cc(N2CCOCC2)nc(-c2ccc(Br)cc2)n1	?	-22%
COc1ccc(OC)c(C(=O)CN2C(=O)N(c3ccc(C)cc3)S(=O)(=O)c3ccccc32)c1	-1%	-6%
COC(=O)c1cc(COC(=O)CNC(=O)c2ccc(Br)cc2)oc1C	0%	i
CCn1c(O)c(C=Nc2ccccc2)n(-c2ccccc2)c1=S	-17%	?
CN(C)c1nc(N)c([N+](=O)[O-])c(NCC2CCCO2)n1 (configuration not stated)	-18%	-13%
Cc1c(N(C)S(=O)(=O)c2cccc(C(=O)NC(C)C)c2)c(=O)n(-c2ccccc2)n1C	2%	-11%
CC(NC(=O)c1cccnc1)C(=O)N1CCCCC1 (configuration not stated)	-12%	-1%
Cc1nnc(SCC(=O)Nc2ccc(S(=O)(=O)N3CCCCC3)cc2)s1	39%[activator]	0%
COc1ccc(/C=N/NC(=O)CN2CCN(Cc3ccccc3)CC2)cc1Br	-7%[7.34 µM]	i[7.34 µM]
O=C(NCc1ccccc1)c1onc(CSc2ccccc2)c1C(=O)NCc1ccccc1	-4%	i
CNS(=O)(=O)c1cc(NC(C)=O)c(C)cc1C	-7%	i
C[C@H](CO)N1C[C@H](C)[C@@H](CN(C)S(=O)(=O)c2ccc(F)cc2)Oc2ccc(NC(=O)C3CC3)cc2C1=O	-10%	-19%
CC(C)(C)n1nnnc1C(c1ccc(Cl)cc1)N(Cc1cccnc1)Cc1ccco1 (configuration not stated)	?	-18%[1.46 µM]
CC(C)C(NC(=O)c1ccc2c(c1)OCCO2)c1nc2ccccc2[nH]1 (configuration not stated)	-16%	-8%
O=C(CCl)N(c1ccccc1)C1CCCCC1	?	?
COC(=O)c1sccc1-n1cccc1C(=O)C(=O)N1CC(C)OC(C)C1 (configuration not stated)	-15%	nt
COc1cc(/C=C/C(=O)OCC(=O)NC(=O)NCc2ccco2)ccc1OC(F)F	-13%	i
COc1cccc(C(=O)NCC2CCCN(C(=O)c3ccc(C=O)cc3)C2)c1OC (configuration not stated)	-3%	-9%
CC(Cc1ccc(OCC(=O)O)cc1)NCC(O)c1cccc(Cl)c1 (configuration not stated)	-3%	-9%
Brc1ccc(-c2nc3ccc(Br)cn3c2Cc2ccccc2)cc1	-10%	9%
COCC(=O)Nc1c(C(=O)Nc2ccc3c(c2)OCCO3)oc2ccccc12	-9%	-10%
Cc1ccc(C)c(-n2c(Cc3cccs3)n[nH]c2=S)c1	-5%	i
CCCN1CNc2c(c(=O)[nH]c(=S)n2CCc2cccc(C)c2)C1	-11%	-9%
OC(CN1CCOCC1)Cn1c2c(c3ccccc31)CCCC2 (configuration not stated)	-4%	-1%
COc1ccc(N(CC(=O)NC2CCCCC2)C(=O)CCCC(=O)Nc2ccccn2)cc1	0%	13%
COc1ccc2c(c1)/C(=C\c1cccc(/C=C3/C(=O)Nc4ccc(OC)cc43)n1)C(=O)N2	-15%	-5%
COc1ccc2cc(CCNS(=O)(=O)c3c(C)cc(C)cc3C)c(=O)[nH]c2c1	-19%	?
Oc1ccc(NCc2cccc(OCc3ccccc3)c2)cc1	-18%	-20%
C=CCNC(=O)c1onc(CSc2ccccc2)c1C(=O)O	-19%	i
O=C(Nc1ccccc1C(=O)N1CCOCC1)C1CC(=O)N(c2ccc(F)cc2)C1 (configuration not stated)	-9%	-7%
O=C(C1CCN(S(=O)(=O)Cc2ccccc2)CC1)N1CCN(c2ccccc2F)CC1	4%	-1%
CCOc1ccc(CCNC(=O)C2CC(=O)N(CCc3ccccc3)C2)cc1OCC (configuration not stated)	-12%	-14%
O=C1CCSC2=C1SCc1sccc12	-4%	-6%
COc1ccccc1C(=O)NNC(=O)C(=O)Nc1cccc(Cl)c1C	-16%	?

Going on with the list.
SMILES	Vaccinia Venus	VACV mCherry inh
COc1ccc(-c2nc3ccc(Cl)cn3c2CC(C)(C)C)cc1OC	8%	i
COC(=O)c1cc(NS(=O)(=O)c2ccc(C)c3ccccc23)ccc1N1CCOCC1	-29%	-6%
Fc1ccc(-n2cnnn2)c(F)c1	0%	i
CS(=O)(=O)N(Cc1ccc(C(=O)NC2CCCCC2O)cc1)c1ccccc1 (configuration not stated)	-11%	i[1.46 µM]

Entries shown so far that contain a Cl atom (14):
SMILES	Vaccinia Venus	VACV mCherry inh
CCN(Cc1ccccc1)C(=O)Cn1c(=O)n(-c2ccc(Cl)cc2)c(=O)c2c(C)c(C(=O)N(C)C)sc21	-3%	-2%
O=C(Nc1ccc(OCc2cc(=O)n3ccccc3n2)cc1)c1ccccc1Cl	-3%	-1%
O=C(Nc1ccc(F)cc1F)c1c(C(F)(F)F)ccnc1Oc1ccc(Cl)cc1	0%[7.34 µM]	-19%[7.34 µM]
Clc1ccc(C(Cn2ccnc2)OCc2csc3c(Cl)cccc23)c(Cl)c1 (configuration not stated)	-26%	-13%
CC1CC(C)CN(C(=O)COC(=O)Cc2ccc(Cl)cc2)C1 (configuration not stated)	-12%	-4%
CC1COc2ccccc2N1C(=O)c1ccccc1Cl (configuration not stated)	-11%	-3%
Cc1ccc2cc(/C=N/NC(=O)[C@H](C)NC(=O)OC(C)(C)C)c(Cl)nc2c1	-22%	-5%
O=CN1CCN(C(=O)c2cc3cc(Cl)ccc3[nH]2)CC1	-23%	-30%
O=C(NC1CCCC1)C1CCN(C(=O)Nc2cccc(Cl)c2)CC1	-1%	0%
CC(C)(C)n1nnnc1C(c1ccc(Cl)cc1)N(Cc1cccnc1)Cc1ccco1 (configuration not stated)	?	-18%[1.46 µM]
O=C(CCl)N(c1ccccc1)C1CCCCC1	?	?
CC(Cc1ccc(OCC(=O)O)cc1)NCC(O)c1cccc(Cl)c1 (configuration not stated)	-3%	-9%
COc1ccccc1C(=O)NNC(=O)C(=O)Nc1cccc(Cl)c1C	-16%	?
COc1ccc(-c2nc3ccc(Cl)cn3c2CC(C)(C)C)cc1OC	8%	i

From PubChem BioAssay
